# GASC-1 inh = inhibitors of human GASC-1 (JMJD2C) demethylase. Q9H3R0. GST-JMJD2C(1-420) H3K9me3 demethylation, DELFIA europium. inhibition, % at 2.35 µM. 0.069% of 330,000 active. AID 2099;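 active = more than half of a compound's replicate wells show inhibition beyond 50%, single wells judged on their own value; inconclusive = some, but no more than half, of replicates pass 50% inhibition; inactive = no replicate passes 50% inhibition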;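 also: signal counts dimethyl H3K9 product captured on neutravidin plate; 0% = median of DMSO wells and 100% = 0.3 times that DMSO median; strong numbers were not always called active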
# PP5 primary = inhibitors of human protein phosphatase 5 (PP5); P53041; purified PP5c, OMFP substrate fluorescence; inhibition, % at 6.7 µM; 0.18% of 320,000 active; AID 1987;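 active = inhibition above the campaign's mean inhibition across all tested compounds plus 3 SD, cut at about 9.5% in these data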;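 also: 0% = DMSO only and 100% = 100 µM cantharidin control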
# TPT1 inhibitor = C. albicans TPT1 enzyme inhibition; recombinant caTPT1, FP RNA substrate dephosphorylation; inhibition, % at 5 µM; 0.81% of 300,000 active;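 active = inhibition above the mean of all tested compounds plus 3 SD, set per screening campaign, cut at about 24% in these data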;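 also: plate controls were DMSO alone for no effect and ferristatin control at 100 nM for full effect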
# ZTA counter = ZTA (EBV) inhibition in EBNA-1 counter-screen | 0.15% of 320,000 active | P03206 | inhibition, % at 11 µM | ZTA-DNA binding, fluorescence polarization; in the data active = inhibition above about 33%
# Target sequence (P03206 whole entry, looked up): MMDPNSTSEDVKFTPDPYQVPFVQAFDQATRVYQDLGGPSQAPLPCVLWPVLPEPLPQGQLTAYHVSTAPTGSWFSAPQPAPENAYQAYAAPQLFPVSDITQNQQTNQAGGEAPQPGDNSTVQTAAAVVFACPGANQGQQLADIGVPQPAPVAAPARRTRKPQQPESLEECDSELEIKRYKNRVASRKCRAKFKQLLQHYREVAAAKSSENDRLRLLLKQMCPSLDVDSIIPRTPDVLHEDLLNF
# Yeast superoxide = caloric restriction mimetics inhibiting age-related superoxide in yeast | AID 2690 | 0.18% of 330,000 active | S. cerevisiae aged cells, superoxide DHE fluorescence; hits give low values | superoxide response (% of plate mean), % at 10 µM;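 active = superoxide response under a set limit, about three screen SD below normal, cut at about 65% in these data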;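 also: yeast aged for seven days with compound at 30 °C before DHE staining; 100% = average MFI of all compound-treated wells on the plate with controls excluded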
# * = called active by the depositor; ? = inconclusive; · = no result given; & = joins results of further samples. This is a subset; count on the stated rates, not on these rows.
structure | ZTA counter | GASC-1 inh | Yeast superoxide | TPT1 inhibitor | PP5 primary
O=C(c1ccccc1)c1ccccc1 | 1 | 2 | 106 | 2 | 1.2
CCN(CC)CCNC(=O)c1ccc(N)cc1 | -2 | ? | 102 | 0 | -4.5
O=C(C1CCCCC1)N1CC(=O)N2CCc3ccccc3C2C1 (stereo not drawn) | 5 | 19 | 102 | 0 | 1.3
C[N+]1(C)CC[C@H](OC(=O)[C@@](O)(c2ccccc2)C2CCCC2)C1 | 18 | -12 | 101 | -3 | 1.0
CN(C)CCOC(c1ccccc1)c1ccccc1 (tested in a mixture with another compound) | -12 | -3 | 112 | -4 | 0.3
COc1ccc2cc([C@H](C)C(=O)O)ccc2c1 | 3 | 7 | 103 | 1 | -2.1
Nc1nc2c(ncn2COCCO)c(=O)[nH]1 | 12 | 51 | 100 | -3 | 0.8
Nc1ccn([C@@H]2CS[C@H](CO)O2)c(=O)n1 | 11 | 8 | 103 | 2 | -1.5
C[C@H]1[C@H](NC(=O)C(=NOC(C)(C)C(=O)O)c2csc(N)n2)C(=O)N1S(=O)(=O)O | -3 | · | 93 | -3 | -2.1
CN1[C@@H]2CC(OC(=O)[C@H](CO)c3ccccc3)C[C@H]1[C@@H]1O[C@@H]12 (stereo partly drawn) | -3&2&6 | 8&0&14&-4 | 118&115&103&95 | 2&1&2 | 2.4&3.2&-1.1
CC(C)(C)c1ccc(C(O)CCCN2CCC(C(O)(c3ccccc3)c3ccccc3)CC2)cc1 (stereo not drawn) | 1 | -15 | 100 | -2 | 4.6
NC1C2CN(c3nc4c(cc3F)c(=O)c(C(=O)O)cn4-c3ccc(F)cc3F)CC12 (stereo not drawn) | -1 | 13 | 92 | -3 | 1.1
Cc1nnc(SCC2=C(C(=O)O)N3C(=O)C(NC(=O)Cn4cnnn4)C3SC2)s1 (stereo not drawn) | -13 | -6 | 100 | -3 | -1.2
O=C(CCCN1CC=C(n2c(=O)[nH]c3ccccc32)CC1)c1ccc(F)cc1 | 6 | -6 | 100 | 0 | -0.3
CN(C)c1ccnc2sc(C(N)=O)c(N)c12 | -6 | 6 | 109 | -2 | 1.1
CCn1nc(C(=O)O)c(=O)c2cc3c(cc21)OCO3 | -5 | -5 | 97 | -3 | 1.0
CCC(C)(C)C(=O)O[C@H]1C[C@@H](C)C=C2C=C[C@H](C)[C@H](CC[C@@H]3C[C@@H](O)CC(=O)O3)[C@H]21 | 10 | 1 | 150 | -1 | 1.5

# Some of the entries so far, as labelled records.
> CC(C)(C)c1ccc(C(O)CCCN2CCC(C(O)(c3ccccc3)c3ccccc3)CC2)cc1 (stereo not drawn)
  ZTA counter: 1; GASC-1 inh: -15; Yeast superoxide: 100; TPT1 inhibitor: -2; PP5 primary: 4.6
> CN(C)CCOC(c1ccccc1)c1ccccc1 (tested in a mixture with another compound)
  ZTA counter: -12; GASC-1 inh: -3; Yeast superoxide: 112; TPT1 inhibitor: -4; PP5 primary: 0.3
> Nc1nc2c(ncn2COCCO)c(=O)[nH]1
  ZTA counter: 12; GASC-1 inh: 51; Yeast superoxide: 100; TPT1 inhibitor: -3; PP5 primary: 0.8
> C[N+]1(C)CC[C@H](OC(=O)[C@@](O)(c2ccccc2)C2CCCC2)C1
  ZTA counter: 18; GASC-1 inh: -12; Yeast superoxide: 101; TPT1 inhibitor: -3; PP5 primary: 1.0

# Structural class: the entries above with fluorine (two)
structure | ZTA counter | GASC-1 inh | Yeast superoxide | TPT1 inhibitor | PP5 primary
NC1C2CN(c3nc4c(cc3F)c(=O)c(C(=O)O)cn4-c3ccc(F)cc3F)CC12 (stereo not drawn) | -1 | 13 | 92 | -3 | 1.1
O=C(CCCN1CC=C(n2c(=O)[nH]c3ccccc32)CC1)c1ccc(F)cc1 | 6 | -6 | 100 | 0 | -0.3

# Compound activity: PubChem BioAssay, several laboratories
